VDR inhibitor = inhibitors of human vitamin D receptor; P11473; VDR-SRC2-3 peptide fluorescence polarization, 2 h; Potency, µM, for inactives: max response, negative = inhibition, hits mostly inhibitors; 400,000 tested, 0.93% active; active means well fitted inhibition curve with a large enough effect; inconclusive means small, poorly fitted or top-dose-only effect, or another doubt; inactive means no such curve, though single readings can be large or run the other way; further: series mostly up to about 120 µM
Target sequence (P11473 whole entry, looked up): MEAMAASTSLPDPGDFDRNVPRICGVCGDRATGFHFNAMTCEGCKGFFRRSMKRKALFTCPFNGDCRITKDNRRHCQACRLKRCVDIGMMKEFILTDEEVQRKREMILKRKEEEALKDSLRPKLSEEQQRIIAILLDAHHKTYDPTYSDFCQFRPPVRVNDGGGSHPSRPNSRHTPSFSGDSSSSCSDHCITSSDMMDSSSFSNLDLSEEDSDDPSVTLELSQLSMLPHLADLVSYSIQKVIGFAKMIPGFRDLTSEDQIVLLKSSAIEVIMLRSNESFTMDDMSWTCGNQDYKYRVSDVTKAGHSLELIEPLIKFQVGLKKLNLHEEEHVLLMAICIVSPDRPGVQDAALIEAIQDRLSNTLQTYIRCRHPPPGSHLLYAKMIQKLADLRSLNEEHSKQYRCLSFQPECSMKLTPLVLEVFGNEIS
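Reagent solutions, kept cold and dark, are dispensed first; compounds are then pinned in at 23 nl, plates briefly spun, and incubated 2 h at ambient temperature. Inhibition of VDR–SRC2-3 peptide binding is read by fluorescence polarization.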
Starred values were filed as active, the others as inactive; ? = inconclusive; & = joins results of further samples. On the % scale 0 is the no-effect control and ±100 the full control effect; potency means the concentration at half of the fitted maximal effect. An excerpt. The share of hits here may be higher or lower than overall.

SMILES | VDR inhibitor
CC(=O)c1ccc(C(C)(C)c2ccc(C(C)=O)s2)s1 | 0.7%
Cc1cc(NS(=O)(=O)c2ccc(NC(=O)Nc3ccc4c(c3)OCO4)cc2)no1 | 2.3%
CCC(C)C(NS(=O)(=O)c1ccc(C)cc1)C(=O)Oc1ccc2c3c(c(=O)oc2c1)CCC3 (stereo not given) | 20.7%
CCCCCCCCCCCCCCCC(=O)OC/C=C(C)/C=C/C=C(C)/C=C/C1=C(C)CCCC1(C)C | -17.2%&-20.1%
NC(=O)CC1C(=O)N(c2ccccc2)C(=S)N1NC(=O)c1ccccc1 (stereo not given) | 10.7%
CC(C)OCCCNC(=O)CN1C(=O)/C(=C/c2ccccc2F)Oc2ccccc21 | -26.1%
Cc1ccc(N2CC(C(=O)Nc3ccc(Br)cc3)CC2=O)cc1 (stereo not given) | 1.4%
CCCCCn1c(CN2CCN(c3cc(Cl)ccc3C)CC2)nc2c1c(=O)[nH]c(=O)n2C | -4.3%
CN1CCN(c2ccccc2NC(=O)c2cccc(OCc3ccccc3)c2)CC1 | -16.1%
C/C(=C\c1ccccc1)C(=O)N1CCN(c2cccc(C(F)(F)F)c2)CC1 | -7.6%
O=C(COc1ccc(Br)cc1)NCCNC(=O)c1ccccn1 | -10.7%
CN(Cc1nc(-c2ccc(Cl)cc2)no1)C(=O)c1ccc2c(c1)OCO2 | -9.5%
C[C@@]12CCC[C@H](O1)[C@@H]([C@H](O)c1ccccc1)O2 | -18.4%
CCCN1CCN(C(=O)Cn2cnc3sc(C)c(S(=O)(=O)N4CCC(C)CC4)c3c2=O)CC1 | 6.0%
CC(C)C(=O)N(c1cc2sc(=O)oc2c2ccccc12)S(=O)(=O)c1cccs1 | 35.5µM*
CCCc1cc2c(cc1NC(=O)c1ccco1)OCO2 | 5.2%
O=C1c2ccc([N+](=O)[O-])cc2S(=O)(=O)N1Cc1ccccc1 | -6.6%
COc1ccc(S(=O)(=O)N(C)C[C@H]2Oc3ccc(NC(=O)Nc4c(C)noc4C)cc3C(=O)N([C@H](C)CO)C[C@@H]2C)cc1 | -18.6%
c1ccc(-c2ccc3nnnn3n2)cc1 | -10.7%
CCCN=CC1=C(O)CC(c2ccccc2)CC1=O (stereo not given) | 16.2%
COc1ccc(OC)c2sc(NNC(=O)C3COc4ccccc4O3)nc12 (stereo not given) | -12.7%
Cc1cc(C)n(-c2cccc(F)n2)n1 | 1.3%
CN(C)c1ccc(C(CN)c2c[nH]c3ccccc23)cc1 (stereo not given) | -8.8%
CCN(CC(N)=O)S(=O)(=O)c1ccc(Br)cc1 | 0.3%
O=C(N/N=C/c1ccccn1)c1cc(-c2ccncc2)nc2ccccc12 | -0.2%
COc1ccc(-c2cc(C)no2)cc1S(=O)(=O)NCCCN(C)Cc1ccccc1 | 4.0%
O=C(c1ccccc1F)N1CCCC(c2ccccc2)C1 (stereo not given) | -15.6%
CCCC/C(O)=C/c1nc2ccccc2[nH]c1=O | -2.4%
COc1ccc(Cn2c(CO)cnc2SCc2cccc(C)c2)cc1 | 7.0%
Cn1c(CCN2CCN(c3ccccc3)CC2)nc2cc(NC(=O)c3ccco3)ccc21 | 2.7%
CCOc1ccc(C(=O)CCC(=O)N2CCN(c3ncccn3)CC2)cc1 | -19.8%
CCN(CC)S(=O)(=O)c1cc(Br)ccc1OC | -4.8%
COc1ccc(OC)c(CNC(=O)C(C)n2nc(C)c3c(C)n(-c4ccccc4)nc3c2=O)c1 (stereo not given) | -20.3%
CC(=O)c1c(C)[nH]c(C(=O)N2CCN(S(=O)(=O)c3ccc(C)cc3C)CC2)c1C | -26.4%
CCOC(=O)C1(Cc2ccc(Cl)cc2)CCN(Cc2nccn2CC)CC1 | -6.2%
CCN(CCCNC(=O)CSc1cc(=O)n(C)c2cc(Cl)ccc12)c1cccc(C)c1 | -5.6%
COc1ccccc1NC(=O)N1CCCC1C(=O)NCc1ccccc1Cl (stereo not given) | 5.4%
COCCNC(=O)C(=O)NCC1OCCN1C(=O)c1ccc(Cl)cc1 (stereo not given) | 9.8%
O=C(Nc1ccc(Br)cc1)c1cc(S(=O)(=O)Nc2ccccn2)ccc1Cl | 9.0%
O=C(COC(=O)Cc1cccs1)Nc1ccc(F)c(F)c1F | 2.9%
O=C(NCCc1nc2ccccc2[nH]1)/C(=C/c1ccc2c(c1)OCO2)NC(=O)c1ccccc1 | -17.7%
COc1cc(NC(=O)C2CCN(S(=O)(=O)c3ccc4c(c3)oc(=O)n4C)CC2)cc(OC)c1 | -0.2%
Clc1ccc(N=c2ssnc2Cl)cc1 | 25.1µM*
COc1cccc(C(=O)c2c[nH]c(C(=O)NCCCN(C)C)c2)c1 | -16.4%
COc1cc(NS(=O)(=O)c2ccc(NC(=O)/C=C/c3ccc([N+](=O)[O-])cc3)cc2)ncn1 | -11.7%
CCOc1ccc(/C=C(\C#N)c2nc(-c3cc4ccccc4oc3=O)cs2)c(OCC)c1 | -11.9%
O=S(=O)(NC1=NCCC1)c1cccs1 | -13.8%
NC(=O)c1nsc(C(=O)N(c2ccc(Cl)cc2)C(C(=O)NCC2CCCO2)c2cccs2)c1N (stereo not given) | 5.8%
CCOc1ccc(S(=O)(=O)NCc2ccccn2)cc1NC(=O)c1ccccc1F | -10.0%
Cc1cccc(-n2ncc3c(NCCCn4ccnc4)ncnc32)c1 | -2.8%
Cc1cc(OCC(=O)N2CCOCC2)ccc1[N+](=O)[O-] | 9.4%
COc1ccc(CCCC(=O)NCC(=O)N/N=C/c2cc(Cl)ccc2OC)cc1 | 16.0%
O=C(NC(=S)Nc1ccc(N2CCCC2)cc1)c1ccc(F)cc1 | -13.1%
O=C1C[C@@H](c2ccccc2Cl)N1S(=O)(=O)c1ccccc1[N+](=O)[O-] | 7.0%
CCc1ccccc1NC(=O)CC1NCCNC1=O (stereo not given) | -2.2%
C[C@]12CC[C@H](O)CC1=CCC1C2CC[C@@]2(C)C1CC[C@@H]2NC(=O)CCC(=O)O (stereo not given in full) | -2.0%
CCN(c1ccccc1)P(=O)(Nc1ccccc1)Nc1ccccc1 | 12.3%
Cc1cc([N+](=O)[O-])nn1CC(=O)Nc1ccc(Cl)cn1 | 3.3%
COc1cccc(NC(=O)CN2C=NS(=O)(=O)c3ccccc32)c1 | -1.6%
Cc1ccc(S(=O)(=O)NCCNS(=O)(=O)c2ccccc2Br)cc1 | 6.4%
Other records follow.
SMILES | VDR inhibitor
COc1cccc(Cn2c(=O)c(C)nc3cnc(N4CCOCC4)nc32)c1 | -13.1%
COc1ccc(N(Cc2cc3ccccc3[nH]c2=O)C(=O)c2cccc(Cl)c2)cc1 | 10.5%
CCOC(=O)C1=C(c2ccccc2)NC(SCC(=O)Nc2ccc(C)cc2)=C(C#N)C1c1ccco1 (stereo not given) | 21.6%
C[C@@H](N)CCCP(=O)(O)O | ?
Cc1cccc(CN2C(=O)/C(=C\c3ccc(C(=O)NCCN4CCOCC4)cc3)Sc3ccccc32)c1 | -6.0%
O=C(CCCc1ccccc1)Nc1ccccn1 | -3.1%
COC(=O)[C@]1(Cc2ccccc2)N[C@H](c2ccc(-c3cccc(Cl)c3)cc2)[C@@H]2C(=O)N(C)C(=O)[C@@H]21 | -14.0%
Cc1cc(-c2ccc(C)c(S(=O)(=O)NCc3ccc(OC(C)C)cc3)c2)on1 | 15.9%
COC(=O)c1sccc1NC(=O)C1C2C=CC(C2)C1C(=O)O (stereo not given) | -14.1%
O=C(C1CCCN(S(=O)(=O)c2ccc([N+](=O)[O-])cc2)C1)N1CCCCC1 (stereo not given) | -9.3%
COc1ccc(NC(=O)c2cc(Cl)ccc2NC(=O)c2ccco2)c(OC)c1 | 4.6%
CC1CCCCC1NC(=O)C(Cc1ccccc1)NS(=O)(=O)c1cccs1 (stereo not given) | -2.5%
CC(C)C[C@H](NC(=O)N1CC(=O)Nc2ccccc21)C(=O)N[C@H](C(=O)O)c1ccccc1 | 3.9%
CCn1cc2nc(SCc3ccc(F)cc3)n(CCc3ccccc3)c(=O)c2n1 | 14.4%
CCS(=O)(=O)n1nc(-c2ccccc2)nc1N | -2.4%
COc1cc2cc(/C=C/C(=O)c3ccco3)c(Cl)nc2cc1OC | ?
c1ccc2c(C[C@@H]3CNCCN3CCCCC3CCCCC3)cccc2c1 | 3.7%
Cc1ccc(CCNC(=O)CCS(=O)(=O)c2ccc(Br)cc2)cc1 | -0.9%
Cc1ccc(NC(=O)CSc2nnc(CSc3nc(C)cc(C)n3)n2Cc2ccco2)c(C)c1 | 14.7%
CCOC(=O)c1c(C)[nH]c(CCC(=O)NCCCN2CCN(c3cc(Cl)ccc3C)CC2)c1C | -3.9%
COc1ccc2oc(=O)cc(CN3CCN(c4ccc(F)cc4)CC3)c2c1 | 4.7%
COc1ccccc1OCC(=O)/C=C1/N(C)c2ccccc2C1(C)C | 11.8%
Oc1ccc(/C=N/Nc2ccc(Cl)nn2)c(O)c1O | -1.6%
COC(=O)c1ccc(CNC(=O)COC(=O)CCC(=O)c2ccc(F)cc2)cc1 | -0.2%
O=C(c1ccncc1)N1CCC2(CCN(Cc3ccccc3)CC2)CC1 | 3.9%
O=C(COC(=O)c1ccccc1NC(=O)c1ccco1)NCCC1=CCCCC1 | -4.4%
CCOC(=O)c1c(-c2ccccc2)oc2ccc(N(C(C)=O)S(=O)(=O)c3ccccc3)cc12 | -20.1%
CCCNC(=O)c1ccc2c(=O)c(O)c(-c3ccc(OC)cc3)[nH]c2c1 | -11.3%
N=c1n(N)c2ccccc2n1CC(=O)c1ccc(Br)cc1 | -6.4%
CC1CCN(C(=O)CCc2nnc3ccc(NCc4ccco4)nn23)CC1 | -1.3%
Cc1ccc(/C=N/NC(=O)CSc2nc3ccccc3n2Cc2ccc(Cl)cc2)o1 | -12.0%
O=C(COc1cc(F)ccc1[N+](=O)[O-])Nc1cc(S(=O)(=O)N2CCCC2)ccc1Cl | -8.0%
Cc1cc(C(=O)NCC(=O)OCC(=O)NCC2CCCO2)ccc1[N+](=O)[O-] (stereo not given) | 9.7%
Cc1ccc(C)c(OCC(=O)N(Cc2nnc(-c3ccccc3Cl)o2)C2CC2)c1 | -15.6%
Cc1c(C(C)(C)O)[nH]c2ccc(C#N)cc12 | -9.7%
Cc1ccc(Cl)cc1-n1ncc2c(NCCC3=CCCCC3)ncnc21 | 10.8%
CC(=O)Nc1ccc(N2C(=O)CCC2=O)cc1C | -4.6%
COc1cc(OC)c(CN2CCN(c3ccc(F)cc3)CC2)cc1Br | -16.2%
CCN1/C(=C\c2ccc3cc(C)ccc3[n+]2CC)Sc2cc(C)c(C)cc21 | -0.8%
CS(=O)(=O)Nc1ccccc1C(=O)OCC(=O)NC1CC1 | -5.6%
NC(=O)CSc1nc2ccccc2n1Cc1ccccc1F | -17.0%
COc1ccc(CNC(=O)COc2ccc(C(=O)c3ccc(F)cc3)cc2)cc1 | 4.8%
CSc1cccc(NC(=O)CNS(=O)(=O)c2ccccc2)c1 | 7.8%
Cc1cccc(C)c1OC(=O)CN1C(=O)c2ccccc2C1=O | 2.0%
O=C(Cn1nnc(-c2ccccc2F)n1)OCC(=O)c1ccccc1 | -9.1%
COc1ccc(C2CC(c3c(O)n(C4CCCCC4)c(=O)[nH]c3=O)=Nc3ccccc3S2)cc1 (stereo not given) | 3.5%
N=c1n(CCN2CCOCC2)c2ccccc2n1CC(O)COc1ccccc1 (stereo not given) | 2.2%
COc1ccc(S(=O)(=O)N2C(=O)/C(=C3\SC(N)=NC3=O)c3ccccc32)cc1 | -9.4%

Some of the entries so far, as tab-separated lines:
Structure	VDR inhibitor
Cc1c(C(C)(C)O)[nH]c2ccc(C#N)cc12	-9.7%
Cc1ccc(Cl)cc1-n1ncc2c(NCCC3=CCCCC3)ncnc21	10.8%
CC(=O)Nc1ccc(N2C(=O)CCC2=O)cc1C	-4.6%
COc1cc(OC)c(CN2CCN(c3ccc(F)cc3)CC2)cc1Br	-16.2%
CCN1/C(=C\c2ccc3cc(C)ccc3[n+]2CC)Sc2cc(C)c(C)cc21	-0.8%
CS(=O)(=O)Nc1ccccc1C(=O)OCC(=O)NC1CC1	-5.6%
NC(=O)CSc1nc2ccccc2n1Cc1ccccc1F	-17.0%
COc1ccc(CNC(=O)COc2ccc(C(=O)c3ccc(F)cc3)cc2)cc1	4.8%
CSc1cccc(NC(=O)CNS(=O)(=O)c2ccccc2)c1	7.8%
Cc1cccc(C)c1OC(=O)CN1C(=O)c2ccccc2C1=O	2.0%
O=C(Cn1nnc(-c2ccccc2F)n1)OCC(=O)c1ccccc1	-9.1%
COc1ccc(C2CC(c3c(O)n(C4CCCCC4)c(=O)[nH]c3=O)=Nc3ccccc3S2)cc1 (stereo not given)	3.5%
N=c1n(CCN2CCOCC2)c2ccccc2n1CC(O)COc1ccccc1 (stereo not given)	2.2%
COc1ccc(S(=O)(=O)N2C(=O)/C(=C3\SC(N)=NC3=O)c3ccccc32)cc1	-9.4%

Following part
SMILES | VDR inhibitor
CC(=O)N1CCN(c2ccc(NC(=O)c3ccc(Cl)cc3)cc2)CC1 | 3.8%
CC(=O)Nc1ccc(S(=O)(=O)NCc2ccc(C)n2C)cc1 | -17.6%
C=CC(C)n1c(Br)nc2c1c(=O)[nH]c(=O)n2C (stereo not given) | -1.7%
CCN1C(=O)/C(=C\N2CCCc3ccccc32)SC1=S | -0.7%
Cc1ccccc1C#N | 6.1%
COc1ccc(NC(=O)CN(c2ccc(F)cc2)S(=O)(=O)c2ccccc2)c(OC)c1 | -5.1%
Fc1ccccc1NC(=S)NCCc1cccc(Cl)c1 | 4.2%
NC(=O)c1c(N)sc(=S)n1-c1ccccc1 | -25.2%
COc1ccc(C(=O)NNC(=O)Cc2nc3ccccc3n2C)cc1 | -8.4%
Cc1ccc(C(=O)Oc2cc(-c3ccccc3)no2)cc1 | 2.7%
Cc1ccc(/C=N\NC(=O)COc2ccc(C)cc2[N+](=O)[O-])cc1 | 1.0%
O=C(COc1ccc2ccccc2c1)N1CCCC1 | 0.8%

Screening results (PubChem)
